From PubChem BioAssay
Cruzain inh noDet = inhibitors of Trypanosoma cruzi cruzain without detergent | 200,000 compounds, 2.3% hits | P25779 | Potency, µM, for the others: max response, negative = inhibition, actives largely listed as inhibitors | purified cruzain, Z-FR-AMC fluorescence, no detergent; active = well fitted curve in the direction sought with a large enough effect; inconclusive = small, poorly fitted or top-dose-only effect, or another doubt; inactive = no such curve, though single readings can be large; an effect the other way counts as inactive or inconclusive;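 note: plate controls were enzyme without inhibitor for no effect and buffer without enzyme for full effect; nearly all actives have a fitted effect of over 40% in size; top concentration of the series not given in the record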
Target sequence (P25779 123-467 limits assumed): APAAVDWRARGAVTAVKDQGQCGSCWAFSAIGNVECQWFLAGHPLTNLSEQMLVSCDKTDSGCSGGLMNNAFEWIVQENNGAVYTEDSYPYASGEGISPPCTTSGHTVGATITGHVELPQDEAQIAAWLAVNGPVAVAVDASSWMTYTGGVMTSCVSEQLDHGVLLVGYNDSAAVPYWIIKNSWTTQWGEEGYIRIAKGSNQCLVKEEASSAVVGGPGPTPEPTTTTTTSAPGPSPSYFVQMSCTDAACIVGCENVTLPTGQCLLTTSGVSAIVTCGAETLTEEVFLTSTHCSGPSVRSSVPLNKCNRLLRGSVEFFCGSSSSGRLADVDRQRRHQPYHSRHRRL
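Detergent-free condition (0.00005% Triton X-100) in acetate buffer pH 5.5 with DTT. 1.5 nM enzyme and compound were pre-mixed 15 min, then 2 uM Z-FR-AMC substrate added; reaction progress from fluorescence change between first and third reads (60 s).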
SARS PLpro yeast = SARS-CoV PLP inhibition in yeast; S. cerevisiae expressing SARS-CoV PLpro, growth rescue; control for the full effect not named in the record; 330,000 compounds, 0.19% hits; Potency, µM (titrated, usually from 32.9 µM), for the others: at the top dose activity, positive = growth rescue; note: 0% is about no effect; nearly all actives have a fitted effect of over 55% in size; growth read by luminescence after 48 h
NS1 inh = influenza NS1 inhibition; Potency, µM (series often up to 46.1 µM), inactives show at the top dose activity, positive = more growth; 270,000 compounds, 0.4% hits; S. cerevisiae slowed by influenza A NS1, growth recovery by OD600; note: actives are rising curves; nearly all actives have a fitted effect of over 50% in size
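OD600 was taken as the measure of yeast growth restored by compound in an NS1-expressing S. cerevisiae strain. Cells had been washed out of glucose medium and diluted 1:100 into galactose -URA medium, pH 6.0.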
MARV entry inh = inhibitors of Marburg virus binding or cell entry; Marburg virus pseudotyped entry inhibition, cell reporter; control for the full effect not named in the record; about a third of the inactives were read at about 46 µM; Potency, µM (series often up to 37.8 µM), for inactives: at the top dose activity change, negative = inhibition, actives largely listed as inhibitors; 300,000 compounds, 1.8% hits; active = well fitted inhibition curve with a large enough effect; inconclusive = small, poorly fitted or top-dose-only effect, or effect the other way; inactive = flat fitted curve, though single readings scatter; tested in HEK293 cells; about a fifth of its hits are not listed in these tables; note: % is set by controls: 0 for no effect and ±100 for the full control effect; luciferase read-out
RE007 growth inh = less growth of the S. pombe RE007 Vpr strain. S. pombe RE007 Vpr strain, BacTiter-Glo ATP luminescence, 24 h; control for the full effect not named in the record. 360,000 compounds, 0.21% hits. AID 651644. Potency, µM (titrated, usually from 92.2 µM), for inactives: top-dose activity change, negative = less growth; active = well fitted falling curve with a large enough effect; inconclusive = small, poorly fitted or top-dose-only effect; inactive = no such curve, though single readings can be large or run the other way;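 note: % is set by controls: 0 for no effect and ±100 for the full control effect; nearly all actives have a fitted effect of over 50% in size; the assay follows cell death caused by Vpr and the record does not say whether a fall means rescue or toxicity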
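Fission yeast strain RE007, carrying one chromosomally integrated HIV-1 vpr copy, was seeded at OD 0.01 in PMG+AL medium with 23 nL pinned compound. After 24 h at 30 °C and 99% humidity, viability was read by BacTiter-Glo luminescence.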
Cruzain Triton = cruzain (T. cruzi) inhibition with detergent. purified cruzain, Z-FR-AMC fluorescence, 0.01% Triton. Potency, µM, for inactives: max response, negative = inhibition, hits mostly inhibitors. 200,000 compounds, 0.43% hits. AID 1478; active = well fitted curve in the direction sought with a large enough effect; inconclusive = small, poorly fitted or top-dose-only effect, or another doubt; inactive = no such curve, though single readings can be large; an effect the other way counts as inactive or inconclusive;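 note: plate controls were neutral wells for no effect and buffer without enzyme for full effect; nearly all actives have a fitted effect of over 40% in size; top concentration of the series not given in the record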
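Detergent-containing arm of a paired screen for aggregation-based inhibition: 0.01% Triton X-100 present. Cruzain at 1.5 nM cleaved 2 uM Z-FR-AMC at pH 5.5 with 5 mM DTT; AMC fluorescence gain over 60 s measured activity.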
LASV entry inh = inhibitors of Lassa virus binding or cell entry; Lassa virus pseudotype entry inhibition, cell reporter; control for the full effect not named in the record; Potency, µM (titrated, usually from 37.9 µM), for inactives: at the highest dose activity change, negative = inhibition, usual class: inhibitors; 300,000 compounds, 1.2% hits; active means well fitted inhibition curve with a large enough effect; inconclusive means small, poorly fitted or top-dose-only effect, or effect the other way; inactive means flat fitted curve, though single readings scatter; tested in HEK293 cells; note: % is set by controls: 0 for no effect and ±100 for the full control effect; nearly all actives have a fitted effect of over 50% in size; luciferase read-out
StopGo reporter = FMDV 2A StopGo reporter, luciferase signal; 410,000 compounds, 1.2% hits; human cells with a luciferase reporter of 2A StopGo recoding; control for the full effect not named in the record; Potency, µM (doses to about 57.9 µM), for the others: at the top dose signal change, negative = less light; active = well fitted falling curve with a large enough effect; inconclusive = small, poorly fitted or top-dose-only effect; inactive = no such curve, though single readings can be large or run the other way; tested in HEK293T cells; note: % is set by controls: 0 for no effect and ±100 for the full control effect; nearly all actives have a fitted effect of over 45% in size; luciferase light after 4 h
An asterisk follows results filed as active; ? = inconclusive; nt = not tested or not shown; & = joins results of further samples; [ ] = another dose, or the depositor's remark. Unless noted, calls come from the whole dose curve; as a rule, active means well fitted rising curve with a large enough effect; inconclusive means small, poorly fitted or top-dose-only effect; inactive means no such curve, though single readings can be large or run the other way. Potency is the fitted concentration of half-maximal effect.

SMILES	Cruzain inh noDet	SARS PLpro yeast	NS1 inh	MARV entry inh	RE007 growth inh	Cruzain Triton	LASV entry inh	StopGo reporter
O=C1CCc2cc(S(=O)(=O)NCc3ccccc3Cl)ccc2N1	nt	0%	nt	-7%	1%	nt	-21%	27%
CCCC(O)(CCN1CCCCC1)c1ccc(OCC)cc1 (centres undefined)	-2%	-9%	2%	nt	-5%	0.8%	nt	-21%
CCCCC(=O)NC(c1ccco1)c1c(O)ccc2ccccc12 (centres undefined)	-3%	4%	5%	0%	10%	-5.3%	-9%	-13%
O=C(NN=C1CCCC1)NC1CCCCC1	15%	20%	30%	-25%	0%	-1.3%	?	25%
O=S(=O)(NC1=NCCCCC1)c1ccc2sc(NS(=O)(=O)c3ccc4ccccc4c3)nc2c1	nt	1%	?	nt	-5%	nt	nt	48%[activator]
CCOC(=O)C(N)CSC1CC(=O)N(c2ccc(OCC)cc2)C1=O (centres undefined)	nt	-22%	-1%	nt	?	nt	nt	-11%
Cc1ccc(S(=O)(=O)NCCc2cn3c(C)csc3n2)cc1	-1%	nt	nt	nt	nt	-1.6%	4%[46.1 µM]	1%
Cc1noc(C)c1C(=O)OCC(=O)Nc1cccc(S(N)(=O)=O)c1	nt	1%	4%	33%[46.1 µM]	8%	nt	7%	9%
CCOc1ccccc1C(=O)N/N=C/c1c[nH]c2ccccc12	nt	-7%	nt	12%[46.1 µM]	0%	nt	-28%	17%
COc1cccc(CN(C(=O)Cn2nnc(-c3ccccc3F)n2)C(C(=O)NC(C)(C)C)c2ccncc2)c1 (centres undefined)	nt	0%	-6%	?	-7%	nt	1%	-8%
O=C1C2C(c3ccccc3)C=CC(c3ccccc3)C2C(=O)N1c1ccncc1 (centres undefined)	8%	-1%	-3%	-22%	-10%	-0.8%	-17%	-5%
Cc1cccc(C)c1NC(=O)Cn1c(=O)n(Cc2ccccc2Cl)c(=O)c2cccnc21	1%	nt	nt	3%[46.1 µM]	nt	0.2%	nt	-23%
COCCN(CC(=O)Nc1cccc(C)c1C)C(=O)c1ccc2c(c1)OCO2	nt	-2%	nt	13%	9%	nt	4%	22%
CC(C)N(Cc1ccccc1)S(=O)(=O)c1ccc(N2CCCCS2(=O)=O)cc1	16%	nt	nt	nt	nt	-2.8%	?	?
Cc1nc2ncnn2c(N2CCN(c3cccc(C(F)(F)F)c3)CC2)c1C	?	-12%	-132%	-15%	16%	-10%	?	?
O=c1c(C=NCC2CCCO2)c(-c2ccccc2)[nH]n1-c1ccc([N+](=O)[O-])cc1 (centres undefined)	nt	-2%	7%	14%[46.1 µM]	?	nt	1%	0%
Cc1ccccc1N1CC(C(=O)Nc2nnc(SCCC3OCCO3)s2)CC1=O (centres undefined)	nt	?	7%	-24%	4%	nt	-10%	1%
O=C(Cn1ccn(-c2ccc(F)c(F)c2)c(=O)c1=O)NCc1ccccc1	0%	nt	nt	nt	nt	-3.4%	-5%[46.1 µM]	-12%
COc1ccc(-c2nc3scc(CCNS(=O)(=O)c4c(C)cc(C)cc4C)n3n2)cc1OC	?	nt	nt	nt	nt	-5.0%	-23%[46.1 µM]	23%
O=C1c2ccccc2C(Nc2ccc(Cl)cc2)N1CCN1CCOCC1 (centres undefined)	6%	13%	-7%	nt	-9%	0.4%	nt	11%
Cc1ccc(N2CC(C(=O)Nc3cc(C)on3)CC2=O)cc1 (centres undefined)	0%	1%	-2%	-16%	-9%	1.7%	-2%	nt
CCOC(=O)c1c(NC(=O)COC(=O)Cc2ccccc2[N+](=O)[O-])sc(C(=O)N(C)C)c1C	nt	3%	nt	-4%[46.1 µM]	24%	nt	1%	-12%
COc1ccc(S(=O)(=O)N2CCOC23CCN(S(=O)(=O)c2c(C)cc(C)cc2C)CC3)cc1	nt	1%	nt	?	30%	nt	-26%	0%
CCc1nc2ccc(C(=O)N3CCN(c4cccc(C)c4C)CC3)cc2nc1CC	-16%	-40%	-11%	nt	8%	0.3%	-12%[46.1 µM]	-1%&-1%
COc1ccc(CNC(=O)C(=O)NCC2OCCN2S(=O)(=O)c2ccccc2)cc1 (centres undefined)	nt	nt	nt	1%	8%	nt	-8%	0%
COc1ccc(-c2csc(NC(=O)CSc3nnnn3C)n2)c(OC)c1	nt	-3%	nt	-2%[46.1 µM]	6%	nt	-15%	-23%
CC(OC(=O)CCC1CCCCC1)C(=O)Nc1ccc(S(N)(=O)=O)cc1 (centres undefined)	nt	2%	nt	?	-16%	nt	24%	-28%
CCN(CC(=O)Nc1ccccc1C(=O)NC1CC1)Cc1cccs1	nt	-3%	nt	?	0%	nt	8%	-8%
COC(=O)c1cc(C(=O)NC(C)C2CC3CCC2C3)cc([N+](=O)[O-])c1 (centres undefined)	nt	2%	-5%	?	3%	nt	2%	-25%
CCOc1ccccc1NC(=O)c1sc2nc3n(c(=O)c2c1C)CCCCC3	14%	nt	nt	nt	nt	-2.2%	3%[46.1 µM]	9%
S=C(NC1CCCCC1)N1CCN(Cc2ccccc2Cl)CC1	nt	0%	-2%	nt	5%	nt	nt	-16%
COC(=O)c1ccc(N=CC2=C(O)CC(c3ccccc3)CC2=O)cc1 (centres undefined)	nt	-1%	?	-4%	-12%	nt	-14%	-4%
Cc1ccc(C(=O)NC(N2CCCC2)C(Cl)(Cl)Cl)cc1 (centres undefined)	-1%	4%	11%	?	-1%	2.1%	14%	19%
CCc1nnc(NC(=O)c2ccc(S(=O)(=O)N(C)Cc3ccccc3)cc2)o1	nt	-8%	-118%	nt	-11%	nt	nt	-6%
CC(C)c1nnc(NC(=O)C2CCCN2C(=O)Nc2ccccc2F)s1 (centres undefined)	nt	1%	0%	nt	11%	nt	nt	3%
COc1ccc2c(c1)c(C(=O)C(C)N1CCCCC1)c(C)n2C (centres undefined)	nt	2%	2%	nt	-9%	nt	nt	19%
Cc1cccn2c(=O)c3cc(C#N)c(=O)n(-c4nnc(SCc5ccccc5F)s4)c3nc12	-2%	nt	nt	-1%[46.1 µM]	nt	1.7%	3%[46.1 µM]	-8%
O=C(C(Cc1ccccc1)N1C(=O)c2ccccc2C1=O)N1CCc2ccccc21 (centres undefined)	-13%	4%	3%	?	4%	-3.4%	?	-8%
COC(=O)CCC/C=C1/SCC(NC(=O)c2ccccc2)/C1=N/O (centres undefined)	nt	1%	?	?	40%	nt	11%	-14%
CCC(=O)Nc1cc(C(=O)OC(C(=O)c2ccc(C)c(C)c2)c2ccccc2)ccc1C (centres undefined)	9%	-29%	4%	?	6%	-2.8%	-15%	0%
Cc1ccccc1N1C(=O)C2ON(c3ccccc3)C(c3ccco3)C2C1=O (centres undefined)	nt	-5%	2%	nt	8%	nt	nt	-9%
Cc1ccc(-n2c(=O)c3c(C)c(C)sc3n(CC(=O)c3ccc(Cl)cc3)c2=O)cc1C	5%	nt	nt	?	nt	0.6%	8%[46.1 µM]	-8%
CC(=O)c1cccc(NC(=O)N2C[C@H]3C[C@@H](C2)c2cccc(=O)n2C3)c1	nt	5%	-1%	nt	9%	nt	nt	-17%
O=C(NCCN1C(=O)S/C(=C\c2cccs2)C1=O)c1ccc(=O)[nH]c1	-9%	-15%	13%	12%	nt	-17%	11%	nt
O=C(CSc1nnc(Cn2nnc3ccccc32)o1)Nc1cccc(Cl)c1	-11%	-2%	0%	29%	-1%	0.1%	-5%	9%
COc1ccc(OC)c(NC(=O)CSc2ccc3ccccc3c2)c1	0%	-1%	-32%	?	-4%	-2.9%	?	-29%
Cc1cc(NCCO)c2ccccc2n1	11%	-4%	-5%	?	19%	-2.0%	-2%	-14%
CC12CN3CC(c4ccccc4)(CN(C1)C3c1ccc(O)cc1)C2=O (centres undefined)	-8%	nt	nt	-7%[46.1 µM]	nt	-1.2%	-12%[46.1 µM]	-16%
CCn1c(SCC(=O)Nc2ccccc2C)nnc1-c1ccccc1O	-7%	4%	-5%	3%	1%	0.1%	-2%	-7%
Cc1nc2nc[nH]n2c(=O)c1NC(=O)c1cccc(OCC(C)C)c1	3%	5%	1%	9%	9%	5.8%	1%	-13%
CC(C)Cc1ccc(S(=O)(=O)N2CCN(Cc3noc(CCC(=O)N4CCCCC4)n3)CC2)cc1	?	nt	nt	nt	nt	-4.8%	20%[46.1 µM]	?
CO/N=C/C(=N\Nc1ccc(OC)cc1)C(=O)c1ccc(F)cc1	nt	-1%	nt	-24%[46.1 µM]	-11%	nt	-27%	-4%
CC1(C)C2CCC1(C(=O)O)c1nc3ccccc3nc12 (centres undefined)	nt	3%	-1%	25%[46.1 µM]	4%	nt	0%[46.1 µM]	-17%
O=C(Nc1ccc([N+](=O)[O-])cc1)C1CC12CCC2 (centres undefined)	nt	0%	nt	-1%[46.1 µM]	-18%	nt	-6%	19%
COc1ccccc1-c1nnc(NC(=O)c2ccc(S(=O)(=O)N(C)CC3CCCO3)cc2)o1 (centres undefined)	nt	5%	-3%	-23%	-16%	nt	?	-13%
CCCC(=O)Nc1ccc(Sc2ccc([N+](=O)[O-])cc2)cc1	0%	-7%	-6%	20µM*	2%	-9.8%	10µM*	?
Cc1c(CN2CCCC(C(=O)c3cccc(Cl)c3)C2)c(=O)n(-c2ccccc2)n1C (centres undefined)	nt	0%	5%	-19%[46.1 µM]	-14%	nt	3%	-11%
Cc1ccc(Cl)cc1NC(=O)C(NS(=O)(=O)c1ccc2c(c1)CCC(=O)N2)c1ccccc1 (centres undefined)	-15%	nt	nt	4%[46.1 µM]	nt	1.3%	-29%[46.1 µM]	-2%
Cn1nnc(NC(=O)CSc2nnnn2-c2ccc(F)cc2)n1	-6%	3%	3%	0%	-5%	2.9%	18%	12%
